Bioassay records as filed in PubChem BioAssay.
USP2a inh – inhibitors of human ubiquitin-specific protease USP2a. USP2a enzymatic assay, qHTS inhibition. Potency, µM (titrated, usually from 38.3 µM), inactives show top-dose activity change, negative = inhibition, actives largely listed as inhibitors. 60,000 tested, 0.1% active;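 also: potency is read from the fitted curve at half-maximal effect; nearly all actives have a fitted effect of over 60% in size; plate controls were DMSO for no effect and NEM full inhibition control for full effect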
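20 nM USP2 core + cpd, 30 min RT; add 20 nM Ub-PLA2/20 uM NBD C6-HPC; read Ex460/Em535 at 0 h and 2.5 h. Normalized to NEM; qHTS curve fit/classification.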
15-hLO inh – blocks human 15-lipoxygenase activity. 74,000 tested, 1.4% active. P16050. Potency, µM (highest dose often 57.1 µM), for inactives: at the top dose activity change, negative = inhibition, usual class: inhibitors. AID 887. purified 15hLO-1, xylenol orange hydroperoxide absorbance; also: potency is read from the fitted curve at half-maximal effect; % is scaled to controls: 0 for no effect and ±100 for the full control effect; nearly all actives have a fitted effect of over 55% in size
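Hydroperoxide formed from arachidonic acid (50 uM) by purified human 15hLO-1 (40 nM) oxidizes ferrous iron, and the ferric-xylenol orange complex is read at 573 versus 405 nm. Compounds were preincubated 15 min; reaction ran 6 min at room temperature.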
HEK293 cAMP ctrl – raises cAMP in parental HEK293 cells, TSHR agonist counter-screen | AID 938 | Potency, µM (top dose mostly 57.1 µM), for the others: at the top dose activation, usual class: activators | 73,000 tested, 2.5% active | parental HEK293 CNG cAMP sensor, membrane potential fluorescence; also: potency is read from the fitted curve at half-maximal effect; % of control where 0% means no effect; nearly all actives have a fitted effect of over 55% in size
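Parental HEK 293 cells stably expressing a cAMP-gated CNG channel were loaded with membrane potential dye containing 100 uM RO 20-1724 for 60 min. Compound added for 30 min; depolarization read as fluorescence intensity at 590 nm.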
BRCT inh green – blocks human BRCA1 BRCT binding to phosphopeptide, green readout | Potency, µM (highest dose often 76.9 µM), for the others: at the highest dose activity change, negative = inhibition, usual class: inhibitors | BRCA1 BRCT-phosphopeptide binding, green fluorescence polarization | P38398 | AID 875 | 75,000 tested, 0.05% active;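 also: potency is read from the fitted curve at half-maximal effect; plate controls were peptide without protein for full effect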
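Fluorescence polarization: His-tagged BRCT (~35 kDa BRCA1 C-terminus, 250 nM) bound to 100 nM fluorescein-labeled phosphorylated 10-aa BACH1 peptide, pH 7.3 phosphate buffer with DTT and Tween 20. Compounds incubated 12 min at room temperature; inhibition read as lowered polarization.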
BRCT PPI red – disrupts BRCA1 BRCT binding to phosphoprotein, red fluorophore readout; Potency, µM (doses to about 76.9 µM), without a hit: at the top dose activity change, negative = inhibition, most hits filed as inhibitors; BRCT-phosphopeptide binding, red fluorescence polarization; 75,000 tested, 0.03% active; P38398; also: % is scaled to controls: 0 for no effect and ±100 for the full control effect
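Rhodamine-labelled pBACH1 10-mer (100 nM) bound to BRCT domain (100 nM) at pH 7.3; compounds incubated 12 min room temperature, polarization read. Free peptide defines full inhibition; unlabelled decapeptide titrated as control.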
Casp1 inh – allosteric or competitive inhibitors of human caspase-1; Potency, µM (series often up to 57.5 µM), without a hit: at the highest dose activity change, negative = inhibition, most hits filed as inhibitors; P29466; Caspase-1 enzyme, Ac-WEHD-AFC fluorogenic rate; 75,000 tested, 0.03% active;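 also: potency is read from the fitted curve at half-maximal effect; plate controls were vehicle for no effect and no substrate for full effect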
Caspase-7 inhib – caspase-7 (human) inhibition, allosteric or competitive; 75,000 tested, 0.02% active; AID 889; recombinant caspase-7, Ac-DEVD-AFC fluorescence rate; P55210; Potency, µM (top dose mostly 57.5 µM), for inactives: top-dose activity change, negative = inhibition, usual class: inhibitors; active = well fitted inhibition curve with a large enough effect in the main read-out, with a control signal flat, not every such curve was filed as active; inconclusive = small, poorly fitted or top-dose-only effect, or a change in a side signal; also: potency is read from the fitted curve at half-maximal effect; % of control where 0% means no effect
DNA Pol III inh – blocks replication by bacterial DNA polymerase III holoenzyme; 71,000 tested, 0.25% active; Potency, µM (series often up to 57.1 µM), inactives show at the top dose activity change, negative = inhibition; reconstituted DNA polymerase III holoenzyme replication, biochemical; also: potency is read from the fitted curve at half-maximal effect; % is scaled to controls: 0 for no effect and ±100 for the full control effect
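Reconstituted *E. coli* holoenzyme (0.35 nM Pol III, 1 nM beta, 154 nM SSB, 2 nM primase) was preincubated with compound for 15 min at RT. Synthesis on 1.4 nM ssM13Gori ran 35 min, then was stopped with PicoGreen/EDTA and read as dsDNA fluorescence.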
Rhodamine fluor – rhodamine region autofluorescence; 59,000 tested, 0.05% active; max dye-equivalent concentration, M; Rhodamine-region fluorescence, 547/598 nm, Tris buffer; hits give high values; in the data active = max dye-equivalent concentration above about 11 nM; inconclusive = between about 1.1 nM and that limit
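Compound fluorescence in 100 mM Tris, pH 8.0, read after 15 min at room temperature with 547 nm excitation and 598 nm emission. Output is dye-equivalent concentration from an on-plate rhodamine standard series.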
Tau fil binding – tau filament binding; P10636; recombinant tau filaments, thioflavin S fluorescence, 15 h; filaments grown with octadecylsulfate alongside compound; Potency, µM (titrated, usually from 57.1 µM), inactives show at the top dose activity change, negative = inhibition; 71,000 tested, 2% active;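 also: potency is read from the fitted curve at half-maximal effect; % is scaled to controls: 0 for no effect and ±100 for the full control effect; actives lower thioflavin S fluorescence by blocking filaments or displacing dye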
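Assay mix: 1 uM His-tagged tau, 30 uM sodium octadecylsulfate, thioflavine S dye in HEPES/NaCl/DTT buffer. Compound is added prior to the inducer. Fluorescence after 15 h at 37 C.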
* marks the source's active call; other numbers are inactive results; i = inactive; ? = inconclusive; / = not tested or not shown; [ ] = another dose, or the depositor's remark. Unless noted, calls follow the shape of the dose curve; as a rule, active = well fitted curve in the direction sought with a large enough effect; inconclusive = small, poorly fitted or top-dose-only effect, or another doubt; inactive = no such curve, though single readings can be large; an effect the other way counts as inactive or inconclusive. An excerpt (hit frequency here may not be typical).

SMILES	USP2a inh	15-hLO inh	HEK293 cAMP ctrl	BRCT inh green	BRCT PPI red	Casp1 inh	Caspase-7 inhib	DNA Pol III inh	Rhodamine fluor	Tau fil binding
CCOc1cc2[nH]c(=S)n(Cc3ccc(C)o3)c(=O)c2cc1OCC	15%	-2%	1%	-1.0%	-0.3%	0%	0%	-4%	i	135%
CCn1c(N)c(C(=O)NCCCOC)sc1=S	6%	?	7%	-1.7%	0.4%	-1%	-6%	-3%	i	1%
CN1C(=O)CS(=O)c2ccc(C(=O)NC3CC3)cc21 (stereo unspecified)	/	-21%	-3%	-1.5%	0.0%	-1%	-1%	-2%	/	9%
O=C(O)CCc1ccc(-c2ccccc2)o1	7%	-17%	23%	-3.1%	-1.8%	-3%	-4%	1%	i	6%
CCOC(=O)CSC1=C(C#N)C(c2ccc(Cl)cc2)C(C(=O)OC)C(=O)N1 (stereo unspecified)	5%	-8%	1%	-0.3%	0.9%	3%	1%	-14%	i	8%
CCOC(=O)c1nn(-c2ccc(OC)cc2)c(=O)c2c(NC(=O)c3ccco3)scc12	-2%	-3%	12%	-1.3%	0.0%	0%	1%	1%	i	-10%
N#Cc1ccc(OC(=O)c2ccc(N=C(N)N)cc2)cc1	/	29%[11.4 µM]	8%[11.4 µM]	-2.7%[15.4 µM]	0.3%[15.4 µM]	1%[11.5 µM]	1%[11.5 µM]	-11%[11.4 µM]	i	6%[11.4 µM]
O=C1C(Cl)=C(N2CCOCC2)C(=O)N1c1ccccc1Cl	-4%[7.66 µM]	8%[11.4 µM]	-1%[11.4 µM]	-0.8%	-0.2%	-5%	-4%	-3%[11.4 µM]	/	0%[11.4 µM]
CCSC1=C(C#N)C(c2ccc(Cl)cc2)C2=C(CCCC2=O)N1 (stereo unspecified)	17%	-16%	-129%[inhibitor]	-0.2%	1.5%	-11%	-5%	-11%	i	4%
Cc1c2c(nc3c(C(=O)NC4CC4)cnn13)CCCC2	-7%	5%	4%	2.0%	-2.3%	0%	-1%	-3%	i	8%
C=CCn1c(COc2ccccc2)nnc1SCC(=O)Nc1ccc(S(N)(=O)=O)cc1	7%	4%	1%	-3.4%	-2.3%	-1%	-1%	4%	i	8%
CCc1ccc(N2C(=O)c3sc4nnc(C)c(=O)n4c3C2=O)cc1	4%	-3%	-1%	-0.5%	1.9%	-3%	2%	-3%	/	47%
CCn1c(Cc2cccn2C)nnc1SCC(=O)c1ccc(C)cc1	20%	-16%	11%	-0.3%	-0.1%	-3%	0%[0.00368 µM]	-4%	i	-14%
O=C(CCc1nc(-c2ccccc2)no1)NCC1CCCO1 (stereo unspecified)	31%[activator]	-11%	-3%	0.8%	2.1%	-2%	-5%	2%	i	?
CC(=O)/C(C(=N)N1CCN(c2cccc(Cl)c2)CC1)=C(\C)O	-7%	-1%	2%	0.2%	1.1%	0%	0%	2%	i	2%
COc1ccc(/C(O)=C2/C(=O)C(=O)N(CCCC(=O)O)C2c2ccc(OC)c(OC)c2)cc1 (stereo unspecified)	1%	2%	-6%	-1.9%	0.1%	2%	0%	6%	i	2%
Cc1cc(NC(=O)NC2(C(F)(F)F)Oc3ccc(Cl)cc3O2)no1 (stereo unspecified)	10%	?	-7%	-0.1%	-1.1%	0%	2%	-1%	i	2%
CCOC(=O)C1C(=O)NC(SCC(=O)Nc2nccs2)=C(C#N)C1c1ccccc1OCC (stereo unspecified)	23%	?	-1%	9.4%	0.9%	-3%	-3%	-1%	i	-1%
CCC(=O)N1C(=O)CCN(C(C)=O)c2ccccc21	-3%	4%	-2%	-1.7%	1.1%	2%	0%	-4%	i	-11%
COc1ccc(-c2[nH]c(-c3cccc(OC)c3)nc2SCC(=O)NCc2ccco2)cc1	/	-37%	2%	2.8%	-0.5%	-5%	-8%	-2%	/	88%
Cc1nnc(C)n1N1C(=O)c2cccc3cccc(c23)C1=O	/	-24%	-3%	-2.1%	0.5%	-1%	-2%	/	/	/
CCOC(=O)c1sc(NC(=O)CSc2nc(-c3ccco3)cc(C(F)(F)F)n2)c(C#N)c1C	6%	-3%	16%	-0.5%	-1.5%	1%	0%	1%	i	-1%
COC(=O)c1cccc(N2C(=O)C(Cl)=C(N3CCOCC3)C2=O)c1	2%	?	13%	0.8%	-0.6%	-3%	-1%	-5%	i	-7%
Cc1cc(C)cc(NC(=O)CSc2nc3c(c(=O)n2C)SC(C)C3)c1 (stereo unspecified)	/	0%	13%	-2.0%	0.5%	1%	1%	0%	/	48%
COc1ccc(-c2cn3c(C)c(C(=O)Nc4cccc(NC(C)=O)c4)sc3n2)cc1	34%[activator]	-14%	14%	-1.6%	-1.7%	-5%	-1%	2%	i	246%
COc1ccc(CC(=O)Nc2cc(C)c3c(=O)oc4ccccc4c3n2)cc1	/	-29%	?	-1.5%	1.3%	-3%	-4%	-4%	/	5%
O=C(Nc1ccccc1-c1ccccc1)C1CCCN(c2ncccn2)C1 (stereo unspecified)	5%	2%	?	-1.9%	0.4%	-1%	0%	2%	i	3%
COc1cccc(C(=O)Nc2cccc(OC(C)=O)c2)c1	6%	-10%	0%	1.2%	-3.3%	2%	1%	-9%	i	-3%
O=C(c1ccc2c(c1)OCO2)N1CCN=C1SCc1ccccc1	/	-7%	27%	1.6%	-1.3%	-4%	-2%	-3%	/	5%
COc1ccc(NC(=O)CC2Oc3ccccc3NC2=O)cc1 (stereo unspecified)	/	-1%	1%	-1.4%	-0.6%	-1%	0%	-1%	/	15%
COc1ccc(S(=O)(=O)N2CCCC2C(=O)Nc2ccc(C)cc2)cc1 (stereo unspecified)	36%[activator]	8%	-2%	-0.4%	0.8%	0%	-1%	-3%	i	14%
COc1ccc(CC(=O)Nc2cccc(-c3nnc(-c4ccc(C)cc4)o3)c2)cc1OC	40%[activator]	-12%	28%	-0.9%	1.4%	-1%	-3%	-11%	i	i
COc1ccc(CC(=O)Nc2ccc(S(=O)(=O)NCC3CCCO3)cc2)cc1 (stereo unspecified)	5%	-23%	4%	-3.1%	-0.7%	-1%	-1%	-5%	i	-8%
O=C(c1ccc(F)cc1)C(CN1CCOCC1)c1ccccc1 (stereo unspecified)	4%	-12%	3%	1.2%	-0.5%	-1%	0%	2%	i	-12%
COCCSc1ccccc1C(=O)Nc1nncs1	/	-18%	-2%	-1.3%	-0.9%	0%	1%	7%	i	7%
O=C(Oc1ccc2c(c1)OCC2=O)c1ccccc1	17%	-9%	-5%	1.6%	-0.3%	-2%	-3%	-11%	i	-8%
O=S(=O)(NC1CCN(Cc2ccccc2)CC1)c1cccc2cccnc12	11%	-1%	17%	1.6%	0.3%	2%	-2%	0%	i	-9%
Cc1ccc2c(c1)NC(=O)C(CC(=O)NCCCN1CCN(c3cc(C)ccc3C)CC1)O2 (stereo unspecified)	/	?	15%	3.6%	2.3%	-1%	-5%	-3%	/	0%
O=S(=O)(NC1CC1)c1ccc(S(=O)(=O)N2CCCC(c3nc(-c4cccnc4)no3)C2)cc1 (stereo unspecified)	21%	-5%	10%	-0.9%	-0.8%	-1%	2%	-1%	i	i
COc1ccc(C(=O)Nc2ccc(-c3ccc(C)o3)cc2)cc1S(=O)(=O)N1CCOCC1	44%[activator]	-29%	18%	3.9%	-2.4%	-4%	-2%	5%	i	194%
CC(C)OC(=O)c1c(NC(=O)CCn2nnc3ccccc32)sc2c1CCCC2	34%[activator]	-23%	20%	2.9%	-0.5%	-3%	-4%	3%	i	0%
COC(=O)c1ccccc1NC(=O)COc1ccc(S(=O)(=O)N2CCCC2)cc1C	-1%	1%	?	-0.8%	1.0%	-1%	0%	-1%	i	4%
Cc1ccc(CC(Cc2nc3ccccc3[nH]2)c2nc3ccccc3[nH]2)cc1 (stereo unspecified)	/	10%[25.6 µM]	/	-3.2%	0.6%	-2%	-4%	/	/	/
O=C(CSc1nnnn1-c1ccc2c(c1)OCCO2)Nc1nc2c(s1)CCCC2	/	0%	19%	-1.9%	0.3%	-5%	-2%	3%	i	39%
Cc1noc(C)c1CSc1nnc2sc3ccccc3n12	-8%	-3%	1%	-0.2%	-1.6%	0%	-1%[0.00368 µM]	47%	i	10%
Cc1cc(NC(=O)CN2CCN(Cc3ccccc3)CC2)nc2c1c(=O)oc1ccccc12	/	-1%	10%	2.4%	-1.3%	-4%	-4%	-1%	/	-1%
COc1ccc(CC(=O)Nc2cccc(-c3nnc(-c4ccccc4)o3)c2)cc1OC	23%	-13%	29%	-0.1%	-1.4%	-2%	-5%	0%	i	i

Reprinted at random: three records from the list.
SMILES	USP2a inh	15-hLO inh	HEK293 cAMP ctrl	BRCT inh green	BRCT PPI red	Casp1 inh	Caspase-7 inhib	DNA Pol III inh	Rhodamine fluor	Tau fil binding
Cc1cc(NC(=O)CN2CCN(Cc3ccccc3)CC2)nc2c1c(=O)oc1ccccc12	/	-1%	10%	2.4%	-1.3%	-4%	-4%	-1%	/	-1%
O=C(CSc1nnnn1-c1ccc2c(c1)OCCO2)Nc1nc2c(s1)CCCC2	/	0%	19%	-1.9%	0.3%	-5%	-2%	3%	i	39%
Cc1noc(C)c1CSc1nnc2sc3ccccc3n12	-8%	-3%	1%	-0.2%	-1.6%	0%	-1%[0.00368 µM]	47%	i	10%
